Compound activity: PubChem, ICCB-Longwood Screening Facility, Harvard Medical School
Polio RdRp inh: poliovirus RNA polymerase inhibition | hit rate 0.66% among 150,000 | P03300 | AID 588519 | poliovirus polymerase elongation, fluorescence polarization; stronger effect = lower value | % elongation, % (compound at 16.7 µg/mL); in the data active = % elongation below about 90%; also: some results filed as inactive read as strong as hits
Target sequence (P03300 1749-2209 limits assumed): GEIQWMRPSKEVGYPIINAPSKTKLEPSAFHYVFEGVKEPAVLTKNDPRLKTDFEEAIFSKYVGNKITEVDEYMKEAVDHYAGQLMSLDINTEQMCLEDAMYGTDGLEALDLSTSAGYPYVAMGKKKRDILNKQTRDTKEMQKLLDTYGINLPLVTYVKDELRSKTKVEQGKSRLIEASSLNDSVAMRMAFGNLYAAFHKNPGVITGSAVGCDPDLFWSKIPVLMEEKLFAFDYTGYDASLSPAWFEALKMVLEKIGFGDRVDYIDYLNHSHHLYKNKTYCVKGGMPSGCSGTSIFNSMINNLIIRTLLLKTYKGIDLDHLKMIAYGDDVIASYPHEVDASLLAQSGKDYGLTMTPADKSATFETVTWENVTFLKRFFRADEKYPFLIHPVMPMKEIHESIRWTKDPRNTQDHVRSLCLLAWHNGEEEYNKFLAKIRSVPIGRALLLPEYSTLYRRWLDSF
Polio RdRp inh intensity: second read-out of Polio RdRp inh, no call of its own (marks repeat the call); % elongation; measured here: total intensity read-out; formula for this scale not given here;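 total fluorescence in place of polarization; lower means less elongation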
* hit, by the source's call.

The first three records as a preview:
SMILES | Polio RdRp inh | Polio RdRp inh intensity
CCOc1ccc(Cn2nnc(C(=O)Nc3ccc(Cl)cc3)c2N)cc1 | 98 | 101
COc1ccccc1C(=O)Nc1cc2c(cc1N1CCCCC1)n(C)c(=O)n2C | 104 | 106
Cc1nn(C)c2c1c(C(F)(F)F)cc(=O)n2C(C)C(=O)Nc1ccccc1F (stereo not given) | 104 | 107

The listing, repeating the preview:
SMILES | Polio RdRp inh | Polio RdRp inh intensity
CCOc1ccc(Cn2nnc(C(=O)Nc3ccc(Cl)cc3)c2N)cc1 | 98 | 101
COc1ccccc1C(=O)Nc1cc2c(cc1N1CCCCC1)n(C)c(=O)n2C | 104 | 106
Cc1nn(C)c2c1c(C(F)(F)F)cc(=O)n2C(C)C(=O)Nc1ccccc1F (stereo not given) | 104 | 107
Cc1ccc(C)c(NC(=O)CCn2nc(C)c3c(C)n(-c4ccccc4)nc3c2=O)c1 | 100 | 106
Cc1nc(-c2ccccc2)sc1CCNC(=O)C(=O)Nc1ccc(F)c(Cl)c1 | 105 | 99
COc1ccc(-c2nc3ccccc3n3c(-c4cccc(C)c4)c4c(=O)n(C)c(=O)n(C)c4c23)cc1OC | 104 | 106
COc1ccc(Cl)cc1C(=O)Nc1c2c(nn1-c1ccc(Cl)cc1)CS(=O)(=O)C2 | 110 | 109
CC(=O)c1ccc(N2C(=O)N(CC(=O)c3ccc(C)cc3)c3ccccc3S2(=O)=O)cc1 | 104 | 108
Cc1cc(NC(=O)c2cccnc2)cc(-c2nc3cc(Cl)ccc3o2)c1O | 103 | 97
Cc1ccccc1CCNC(=O)c1ccc2c(c1)nc1n2CCC(C)C1 (stereo not given) | 108 | 113
CCOC(=O)c1cc(-c2ccccc2)n(CCC(=O)NC2CCCCC2)c1C | 98 | 107
Cc1cccc(NC(=O)CS(=O)(=O)c2cccc3nsnc23)c1 | 110 | 103
Cc1nc2c(-c3ccccc3)c(C)nn2c(C)c1CCC(=O)NCc1ccccc1 | 109 | 109
COC(=O)c1c(NC(=O)/C(C#N)=C/c2ccccc2)sc2c1C(C(=O)OC)CC2 (stereo not given) | 102 | 127
Cc1ccc(/C=C/c2onc(C)c2S(=O)(=O)N2CCC(C(=O)NCc3ccc(OC(C)C)cc3)CC2)cc1 | 107 | 107
COc1ccc(C(=O)n2nc(-c3ccco3)nc2NCc2cccs2)cc1 | 109 | 110
Cn1nnnc1SCCCNCc1cccc(OCc2ccccc2Cl)c1 | 108 | 105
CCc1ccc(NC(=O)CCc2c(C)nn(-c3ccc(N4CCCC4)nn3)c2C)cc1 | 106 | 110
CC(C)c1ccc(C2c3c(oc4ccc(Cl)cc4c3=O)C(=O)N2CCCN2CCOCC2)cc1 (stereo not given) | 104 | 105
COc1cccc(CNC(=O)c2ccc(-n3c(C)cc4c3CCC(C)C4)cc2)c1 (stereo not given) | 109 | 105
CCOc1ccc(N(CC)S(=O)(=O)N2CCCC(C(=O)Nc3cc(Cl)ccc3OC)C2)cc1 (stereo not given) | 106 | 107
CCOc1ccc(NC(=O)c2c(Nc3ccccc3C)sc(C(=O)c3ccc(Cl)cc3)c2N)cc1 | 112 | 104
CCOCCc1nn2c(=O)cc(COC(=O)c3ccccc3NC(=O)c3cccs3)nc2s1 | 107 | 110
CC(=O)N1CCc2cc(CNC(=O)Nc3cc(Cl)ccc3C)ccc21 | 109 | 108
COc1ccc(-n2ncc(C(=O)N3CCN(c4ccccn4)CC3)c2C2CCN(C(=O)OC(C)(C)C)CC2)cc1 | 109 | 103

5 entries picked at random from those above:
SMILES | Polio RdRp inh | Polio RdRp inh intensity
COc1ccc(-n2ncc(C(=O)N3CCN(c4ccccn4)CC3)c2C2CCN(C(=O)OC(C)(C)C)CC2)cc1 | 109 | 103
Cc1nc2c(-c3ccccc3)c(C)nn2c(C)c1CCC(=O)NCc1ccccc1 | 109 | 109
COC(=O)c1c(NC(=O)/C(C#N)=C/c2ccccc2)sc2c1C(C(=O)OC)CC2 (stereo not given) | 102 | 127
CC(=O)N1CCc2cc(CNC(=O)Nc3cc(Cl)ccc3C)ccc21 | 109 | 108
COc1cccc(CNC(=O)c2ccc(-n3c(C)cc4c3CCC(C)C4)cc2)c1 (stereo not given) | 109 | 105

Other records follow.
SMILES | Polio RdRp inh | Polio RdRp inh intensity
O=C(Nc1ccc(C(=O)N2CCCCC2)cc1)c1nsc2ccccc12 | 109 | 113
Cc1cc(OCCn2c(C3CC(=O)N(Cc4ccc(F)cc4)C3)nc3ccccc32)ccc1Cl (stereo not given) | 107 | 112
CCOC(=O)c1c(C)[nH]c(C)c1S(=O)(=O)N1CCCC(C(=O)NCc2ccc(N(C)C)cc2)C1 (stereo not given) | 105 | 113
COc1cc(Cl)c(NS(=O)(=O)c2ccc(-c3cnc(C4CC4)o3)cc2)c(OC)c1 | 87* | 92*
Cc1cccc(CNC(=O)CCCN2C(=O)CCn3nc(-c4cn(C)c5ccccc45)cc32)c1 | 107 | 114
COCCNC(=O)CN1C(=O)COc2ccc(S(=O)(=O)N3CCCC3)cc21 | 105 | 100
COCCNC(=O)CCn1c(=O)[nH]c2cc(OC)c(OC)cc2c1=O | 107 | 111
Cc1ccc(-n2ncc3c(NNC(=O)c4ccccc4C)ncnc32)cc1 | 104 | 112
COC(=O)CCN(C(=O)C1CCN(S(=O)(=O)c2c(C)noc2/C=C/c2ccccc2F)CC1)c1ccccc1 | 104 | 97
COc1nnc(-c2ccc(N3CCCCC3)c(NC(=O)c3ccccc3Cl)c2)c2ccccc12 | 104 | 107
CCN(CC)c1ccc(NC(=O)c2cc(S(=O)(=O)N3CCc4ccccc43)cn2C)c(C)c1 | 110 | 115
Cc1ccc(Cl)cc1NC(=O)CSc1nccn1C | 102 | 106
CCCN(Cc1cccs1)C(=O)Nc1cc(C)ccc1OC | 110 | 107
Cc1c(C(=O)N2CCOCC2)oc2c1-c1nn(CC(=O)NCc3cccc(Cl)c3)cc1CC2 | 111 | 113
CCOc1ccccc1NC(=O)Cn1cnc2c1c(=O)n(C)c(=O)n2C | 106 | 106
COc1ccc(CC(=O)NCc2ccc3c(c2)CCN3C(=O)c2ccc(C)cc2)cc1OC | 104 | 104
COc1ccccc1CNC(=O)CCC1N=C2c3ccccc3N=C(SCc3ccc(C)cc3C)N2C1=O (stereo not given) | 106 | 112
CCCn1c2ccccc2c2cnn(CC(=O)NC(C)CC)c(=O)c21 (stereo not given) | 103 | 104
Cc1ccc(NC(=O)c2nnn(Cc3ccccc3)c2N)cc1C | 105 | 110
CCCCCCc1cc2cc(-c3nnc(-c4cccc(Cl)c4)o3)c(=O)oc2cc1O | 101 | 239
O=c1c2oc3ccccc3c2n(Cc2ccc(Cl)cc2)c(=O)n1Cc1ccco1 | 106 | 112
Cc1c(NC(=O)c2cccc3c(Cl)cccc23)cccc1-c1nc2ccccc2o1 | 103 | 106
CC1CCn2c(nc3cc(C(=O)NCc4ccc(OC(C)C)cc4)ccc32)C1 (stereo not given) | 109 | 107
CCCCN(CC)CCCNC(=O)c1nn(C)c2c1CSc1ccccc1-2 | 114 | 106
Cc1ccc(C)c(NC(=O)Cn2nc(C)c3nn(-c4ccc(Cl)cc4)c(C)c3c2=O)c1 | 109 | 115
SMILES | Polio RdRp inh | Polio RdRp inh intensity
CCOc1ccc2nc(N3CCCC(C(=O)NCc4ccccc4OC)C3)sc2c1 (stereo not given) | 109 | 115
COC(=O)c1c(-c2cccs2)csc1NC(=O)COc1ccccc1 | 66* | 67*
Cc1ccc(CNC(=O)c2ccc(CSCc3c(F)cccc3Cl)o2)cc1 | 112 | 104
Cc1oc(-c2cccc(Cl)c2)nc1CN1CCC(C(=O)NC(C)C)CC1 | 108 | 112
Nc1c(C(=O)Nc2ccccc2)nnn1Cc1ccc(F)cc1Cl | 107 | 105
Cc1ccc(C)c(OCCn2cc(C(=O)c3cccs3)c3ccccc32)c1 | 102 | 106
CCc1cc(=O)[nH]c(SCc2nc(-c3cccc(Cl)c3)no2)n1 | 110 | 107
CCOC(=O)C1CCN(C(=O)c2ccc3c(c2)sc2nc(-c4ccc(OC)cc4)cn23)CC1 | 103 | 97
COc1ccc(-c2cccc(NS(=O)(=O)c3cc(C(F)(F)F)ccc3Cl)c2)nn1 | 105 | 105
Cc1ccc2c(=O)cc(C(=O)Nc3sc4c(c3C(=O)NCc3cccnc3)CCCC4)oc2c1C | 118 | 117
CC(=O)c1cccc(Nc2ccc3cc(S(=O)(=O)N4CCCC4)ccc3n2)c1 | 102 | 106
COc1ccccc1NC(=O)c1cc2c(n(-c3ccc(C)cc3)c1=O)CC(C)(C)CC2=O | 108 | 110
CCCOc1ccc(C(=O)Nc2nonc2-c2ccc(OCC)cc2)cc1 | 101 | 106
COc1ccc(-c2csc3nc(-c4ccc(F)cc4)oc(=O)c23)cc1OC | 106 | 107
CC(=O)c1ccc(Nc2cc(C)nc3nc(Cc4ccc(Cl)cc4)nn23)cc1 | 104 | 99
O=C(Nc1ccc(F)cc1F)N1CCc2c(sc3c2CCCC3)C1c1ccc(F)cc1 (stereo not given) | 106 | 109
Cc1ccc(NC(c2ccc(Cl)cc2)c2nnc(-c3cccc(F)c3)o2)cc1C (stereo not given) | 107 | 110
COCCNC(=O)c1cnc2sc(N3CCC(C)CC3)nn2c1=O | 108 | 108
O=C1CC(c2nc3ccccc3n2CCCOc2ccccc2)CN1c1ccc(F)cc1 (stereo not given) | 111 | 115
COc1ccccc1C(=O)Nc1c(C(=O)Nc2ccc(C)cc2)oc2ccccc12 | 108 | 111
CCOC(=O)c1ccccc1NC(=O)CN1C(=O)CC(c2ccco2)Sc2ccccc21 (stereo not given) | 106 | 111
Cc1cccc(C(=O)Nc2ccc(-c3nc4cc(C(C)C)ccc4o3)cc2)c1 | 105 | 107
Cc1cccc(Cn2cc3c(=O)n(CC(=O)Nc4c(C)cccc4C)nc-3c3cc(F)ccc32)c1 | 110 | 112
Cc1cccc(-c2nc3scc(CCNS(=O)(=O)c4c(C)noc4C)n3n2)c1 | 112 | 116
O=C(NCc1cccs1)c1ccc2c(c1)N(Cc1ccccc1Cl)C(=O)c1ccccc1S2 | 106 | 105

Entries from the list above containing a CF3 group (2):
SMILES | Polio RdRp inh | Polio RdRp inh intensity
Cc1nn(C)c2c1c(C(F)(F)F)cc(=O)n2C(C)C(=O)Nc1ccccc1F (stereo not given) | 104 | 107
COc1ccc(-c2cccc(NS(=O)(=O)c3cc(C(F)(F)F)ccc3Cl)c2)nn1 | 105 | 105

More results follow:
SMILES | Polio RdRp inh | Polio RdRp inh intensity
Cc1ccc(S(=O)(=O)C(CNC(=O)c2ccc(C(F)(F)F)cc2)c2ccco2)cc1 (stereo not given) | 112 | 104
COC(=O)c1cc2oc3ccccc3c2n1Cc1c(F)cccc1Cl | 110 | 113
CCn1c(SCc2c(F)cccc2Cl)nc(=O)c2c(C(=O)OC)cc(C3CC3)nc21 | 107 | 116
CCOC(=O)c1c(C)[nH]c(C)c1S(=O)(=O)N1CCCC(C(=O)Nc2ccc(C)c(N(C)C)c2)C1 (stereo not given) | 106 | 112
CC(C)(C)OC(=O)N1CCC(c2c(C(=O)NCCc3ccccc3)cnn2-c2ccc(F)cc2)CC1 | 105 | 99
CCn1cc(/C=C(\NC(=O)c2cc(OC)c(OC)c(OC)c2)C(=O)NCCCn2ccnc2)c2ccccc21 | 105 | 112
CCOC(=O)c1ccc(N2C(=O)c3n[nH]c(C)c3C2c2ccccc2OC)cc1 (stereo not given) | 104 | 111
O=C(c1ccc(Br)cc1)N1CCC(c2nc3ccccc3s2)CC1 | 109 | 101
Cc1ccc(NC(=O)/C=C/c2ccc(C)o2)c(C)c1 | 106 | 109
CCOC(=O)c1nnc2c(-c3ccc(OC)cc3)c(C)nn2c1N | 83 | 137
Cc1cc(F)ccc1NCc1ccccc1-c1nnc(-c2ccccc2Cl)o1 | 108 | 111
CC1CCCN(Cc2c(O)ccc3c(=O)c(-c4ccc(Cl)cc4)c(C(F)(F)F)oc23)C1 (stereo not given) | 103 | 108
CC1CCN(S(=O)(=O)c2ccc3nc(N4CCN(c5ccc(F)cc5)CC4)ccc3c2)CC1 | 106 | 106
CCc1ccc(CNC(=O)C2CCCN(c3nnc(C)c4c(C)n(-c5ccc(OC)cc5)nc34)C2)cc1 (stereo not given) | 116 | 117
CS(=O)(=O)c1ccc(-c2nnc(NC(=O)c3ccc4c(c3)OCCO4)o2)cc1 | 118 | 120
CCCCN(C)S(=O)(=O)c1ccc(C(=O)Nc2sc3c(c2C(N)=O)CC(C)(C)NC3(C)C)cc1 | 107 | 110
COc1ccc(OC)c(NC(=O)Cn2c(=O)n(CC3CCCO3)c(=O)c3cc(OC)c(OC)cc32)c1 (stereo not given) | 112 | 113
Cc1ccc2nc(-c3ccc(F)cc3)c(NC(C)(C)CC(C)(C)C)n2c1 | 106 | 111
O=C1c2ccccc2C(=O)C1(c1ccccc1)N1CCN(c2cccc(C(F)(F)F)c2)CC1 | 108 | 110
CCn1cc(C(=O)NCc2ccccc2Cl)c(=O)c2cc(S(=O)(=O)N3CCCCCC3)ccc21 | 104 | 103
COc1cc(Nc2ncnc3onc(-c4ccc(Cl)cc4)c23)cc(OC)c1 | 99 | 107
Cc1ccc2nc(-c3c[nH]c4ccccc34)c(Nc3ccccc3C)n2c1 | 107 | 114

This is a subset. The share of hits here may be higher or lower than overall.
